# Tg IFNy HTS: T. gondii growth inhibition with IFN-gamma, primary screen, cell-based; 69,000 compounds, 3.8% hits; activity change, negative = inhibition, %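 (about 20 µM by stock and volumes)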; AID 1259416, 2018; Toxoplasma gondii growth in IFN-gamma-treated host cells; hits give low values; reference of the scale not given here;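 active = below -70%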;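 note: host cells are HeLa cells infected with Toxoplasma gondii; parasite growth read as luciferase light; one replicate is shown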
# An asterisk follows results filed as active; & = joins results of further samples; ! = repeats disagree. Not all compounds are listed; count on the stated rates, not on these rows.
Structure	Tg IFNy HTS
CNc1ncccc1C(=O)NCC1CCN(Cc2cnc(C)[nH]2)C1 (stereo not given)	5.9
Cc1ccc(C2(O)CCN(C(=O)Cn3nc(C)cc3N)CC2)nc1	0.8
O=C(C[C@H]1CC[C@H](NC(=O)CN2CCOCC2)[C@H](CO)O1)NC1CCC1	-18.2
CC(C)(C)c1nc(CN2CCC(O)(CO)CC2)no1	-4.8
COc1ccc(NC(=O)CCN2CCc3ccccc3C2)c(OC)c1	30.1
CO[C@H]1CN(C)C(=O)c2cc(NC(=O)C3CCOCC3)ccc2OC[C@@H](C)NC[C@H]1C	-1.6
CCN(CCn1cccn1)C(=O)C1COc2ccccc2O1 (stereo not given)	0.1
CCOC(=O)C1(CCC(C)C)CC(CSc2nc3ccccc3[nH]2)OC1=O (stereo not given)	-27.0
COc1ccc(CNC(=O)C2CCN(c3nc(OC)nc(OC)n3)CC2)cc1	-5.4
COc1ccc2[nH]cc(CCN3CC(O)=C(c4nc5ccccc5s4)C3=N)c2c1	3.5

Structure	Tg IFNy HTS
Cc1ccc(-c2nc(Cn3nnc(C(=O)Nc4cccc(Cl)c4C)c3C)c(C)o2)cc1	-63.6
CCS(=O)(=O)Nc1ccc2c(c1)C(=O)N(C)[C@H]1CC[C@H](CC(=O)N[C@H]3CCN(Cc4ccccc4)C3)O[C@H]1CO2	1.9
CCc1ccc(S(=O)(=O)N2CCC3(CC2)NCCN=C3NCc2ccccc2C)cc1	4.2
CC(C)CC(=O)NCCc1csc(-c2ccc(F)cc2)n1	31.4
COc1ccc(Cn2c(Cc3ccncc3)n[nH]c2=O)cc1	3.4
CC(C)COc1ccc(-c2noc(-c3c(O)c4cc(Cl)ccc4[nH]c3=O)n2)cc1	18.4
Nc1ccc(-c2ccc(C3CCCN(C(=O)Cc4ccc5c(c4)CCCO5)C3)nc2)cn1 (stereo not given)	-46.5
Cc1nc2nnc3ccc(C(=O)Cc4ccccn4)cc3c2n1CC1CCCO1 (stereo not given)	15.9
COc1ccccc1-c1nc(Cn2nnc(C(=O)Nc3cc(C)ccc3C)c2C)c(C)o1	7.4
O=C(c1ccc(C(F)(F)F)cc1)n1ccc(-c2cccs2)n1	152.0

# Brought forward from above: 4 compounds, then new ones.
Structure	Tg IFNy HTS
Nc1ccc(-c2ccc(C3CCCN(C(=O)Cc4ccc5c(c4)CCCO5)C3)nc2)cn1 (stereo not given)	-46.5
Cc1nc2nnc3ccc(C(=O)Cc4ccccn4)cc3c2n1CC1CCCO1 (stereo not given)	15.9
COc1ccccc1-c1nc(Cn2nnc(C(=O)Nc3cc(C)ccc3C)c2C)c(C)o1	7.4
O=C(c1ccc(C(F)(F)F)cc1)n1ccc(-c2cccs2)n1	152.0
COc1ccc(C(=O)N2C[C@H](OCC3CC3)[C@@H]3OCCC[C@@H]32)cc1	11.9
COC(=O)CCN1CC(OCc2cccc(OC)c2)CN(C(=O)C2CCCCC2)CC1=O (stereo not given)	4.7
Cc1nc2ccc(NS(=O)(=O)c3ccc(F)c(Cl)c3)cc2o1	-2.8
CC(=O)Nc1ccc(C(=O)N2CCCCC2c2cc(-c3ccc(F)cc3)cc(C)n2)cc1 (stereo not given)	-54.7
CN(Cc1cc2n(n1)CCNC2)CC1COc2ccccc2O1 (stereo not given)	4.3
O=C1C(=O)N(O)C2CCCCC2N1O (stereo not given)	-53.2
Cn1c(=O)c2c(ncn2CCC(=O)NCc2cccc(N3CCCCC3)c2)n(C)c1=O	0.2
CCCCCOC(=O)Nc1ccc(S(=O)(=O)Nc2ccc(Br)cc2)cc1	-86.8*
CCn1c(SCc2nnc(-c3ccccc3)o2)nnc1-c1cc(OC)cc(OC)c1	-3.6
O=C(Nc1cnc2n1CCCC2)c1cc(-n2cccn2)ccc1Cl	-3.5

# Shown with each value named: three of the compounds above.
COC(=O)CCN1CC(OCc2cccc(OC)c2)CN(C(=O)C2CCCCC2)CC1=O (stereo not given)
  Tg IFNy HTS = 4.7
Cc1nc2ccc(NS(=O)(=O)c3ccc(F)c(Cl)c3)cc2o1
  Tg IFNy HTS = -2.8
CC(=O)Nc1ccc(C(=O)N2CCCCC2c2cc(-c3ccc(F)cc3)cc(C)n2)cc1 (stereo not given)
  Tg IFNy HTS = -54.7

# Further results
Structure	Tg IFNy HTS
Cc1cc(C)n(CCc2c(-c3ccccc3)ncn2CCN2CCOC2=O)n1	-0.8
O=C(O)[C@H]1O[C@@H](Oc2cc3oc(-c4ccccc4)cc(=O)c3c(O)c2O)[C@H](O)[C@@H](O)[C@@H]1O	155.7
O=C(Cc1cccnc1)N1CC(=O)N2[C@H](CO)[C@@H](c3ccc(C#CC4CCCCC4)cc3)[C@H]2C1	-45.1
c1csc(CN2CCOC(CC3CCCCC3)C2)n1 (stereo not given)	17.9
O=C(O)c1cc(-c2cccc(-n3cccn3)c2)cc(S(=O)(=O)N2CCCC2)c1	-0.1
CS(=O)(=O)N1Cc2ccccc2C2(CCN(C(=O)c3ccno3)CC2)C1	-1.0
Cc1ccc(C(=O)NCCc2csc(-c3ccc(Cl)cc3)n2)cc1	-59.6
CN1CCN(C(=O)[C@H]2CC3CN(c4ncc(F)cn4)CC3N2C)CC1 (stereo not given in full)	-2.2
COc1cc(CN(C)Cc2ncccc2C)cc(OC)c1	-4.7
CCn1c(C2CCNCC2)nn(CCc2cccc3ccccc23)c1=O	-3.9

Structure	Tg IFNy HTS
Cc1nn(C)c2[nH]cc(C(=O)O)c(=O)c12	-9.6
C=CCN(CC=C)C(=O)CN1CCC[C@H]1CO	13.1
CCc1cnc(N2C[C@@H]3CN(c4ncccn4)C[C@]3(C(=O)O)C2)nc1	20.7
Cc1cc(-c2snnc2C2CCN(C(=O)c3c(F)cccc3Cl)CC2)on1	1.5
COc1cccc(-n2cc(CN(C)C(=O)C3CC4(CCNCC4)CN3)cn2)c1 (stereo not given)	-52.1
COc1ccc(Cl)cc1C(=O)N(Cc1ccccc1)C(C)C	-10.8
Cc1cnc(CCNC(=O)CC2CCN(C(=O)C3(c4ccccc4)CCCC3)CC2)s1	0.0
COc1ccc(CNC2=NCCNC23CCN(S(=O)(=O)c2cc(C)c(C)cc2C)CC3)cc1	-19.9
COC(=O)CSc1nnc([C@H](C)NC(=O)OC(C)(C)C)o1	13.5
CC(=O)N[C@@H]1C[C@H](Cc2ccccc2)O[C@H](c2cc(C(C)(C)C)n[nH]2)C1	-1.1

Structure	Tg IFNy HTS
CS(=O)(=O)N1C[C@H]2CNC[C@@]2(C(=O)N2CCc3ccccc3C2)C1	0.8
Cc1ccc(S(=O)(=O)Cc2nc(-c3ccc(C(=O)NCc4cccnc4)cc3)oc2C)cc1	-113.4*!
CS(=O)(=O)N1CC[C@@H]2OCC[C@]2(C(=O)NCCc2ccccn2)C1	0.2
O=C(c1ccccc1Oc1ccccc1)N1CCC(O)(C(=O)O)CC1	2.1
N#C[C@@H]1[C@@H](c2ccc(-c3cccnc3)cc2)[C@H](CO)N1C(=O)Nc1ccc(F)cc1	-42.7
Cc1noc(C)c1CCC(=O)N1CCC[C@@H](CNC(=O)c2ccco2)C1	25.8
CC1CCC2(CC1)NC(=O)N(CC(=O)Nc1nc(C(C)C)cs1)C2=O (stereo not given)	9.6
CC(=O)CC(c1ccc([N+](=O)[O-])cc1)c1c(O)c2ccccc2oc1=O (stereo not given)	5.2
CNC(=O)c1cc(-c2ccn[nH]2)ccc1Cl	4.4
Cc1nc(-c2cccc(F)c2)sc1CCNS(=O)(=O)c1ccc2c(c1)OCCO2	54.0

Structure	Tg IFNy HTS
CCOc1ccccc1OC(c1ccccc1)C1CNCCO1 (stereo not given)	10.7
Cc1occc1C(=O)N1CC[C@H]2[C@@H]1CCN2c1nncs1	-10.3
CS(=O)(=O)N1[C@H](C#N)[C@@H](c2ccc(C#Cc3cccc(F)c3)cc2)[C@@H]1CO	-1.0
CN1CCCCC1CCC(=O)N1CC(n2cccn2)C1 (stereo not given)	1.4
CN1C(=O)N(CCc2ccccc2)C(=O)C12CCN(Cc1cccs1)CC2	9.4
CCCCCOc1ccc(C(O)C(CN2CCCC2)c2ccccc2)cc1 (stereo not given)	-91.2*
Cc1ccc(-c2nc(CN3CCN(C(=O)Nc4cc(C)ccc4C)CC3)c(C)o2)cc1	1.7
CC(=O)N1CCCCC[C@@H]2[C@@H]1[C@H](c1cccc(F)c1)CN2Cc1cnn(C)c1C	-5.5
COc1ccccc1-c1cc(C(=O)NCCN2CCc3ccccc32)no1	-4.3
CCN1C(=O)N(CCCc2cccnc2)C(=O)C12CCN(Cc1ccc(N3CCCC3)cc1)CC2	14.2

SMILES,Tg IFNy HTS
CCn1c(C2CCN(C(=O)c3nc(C(C)C)cs3)CC2)n[nH]c1=O,0.9
O=C(COc1ccc(F)cc1)NCCc1csc(-c2ccc(Cl)cc2)n1,-40.4
Cc1nnc([C@@H]2CCO[C@@H]3CCN(C(=O)c4ccccn4)C[C@H]32)o1,323.1
Cc1ccc(CN2C[C@H](OCC3CCOCC3)[C@@H]3COC[C@@H]32)o1,-14.7
Cc1ccc(S(=O)(=O)Nc2ccc3c(c2)C(=O)N(C)[C@@H]2CC[C@@H](CC(=O)NCCc4ccncc4)O[C@H]2CO3)cc1,-33.4
O=C(C[C@H]1C=C[C@H](NC(=O)C2CCC2)[C@H](CO)O1)NC1CCCCC1,38.5
O=C1CC(CSc2nnnn2-c2ccccc2)=NN1,22.4
CCN1CCCc2cc(-c3cncn3C(C)CN3CCOCC3)ccc21 (stereo not given),-9.2
CN1C[C@H](O)COC[C@H]2O[C@H](CC(=O)NC3CCCC3)CC[C@@H]21,3.2
COc1ccccc1-c1ccc2c(c1)O[C@@H](CN(C)CC1CCOCC1)[C@@H](C)CN([C@H](C)CO)S2(=O)=O,19.5
CC1=C(C(=O)NCCCN(C)Cc2ccccc2)C2(CCN(S(C)(=O)=O)CC2)OC1=O,12.8
CCCC(=O)N1CCc2c([nH]c3ccccc23)C1c1ccc(F)cc1 (stereo not given),0.9
COc1cc(C(=O)NN2C(=O)CSC2=S)ccc1O,51.9
Cn1c(CNC(=O)c2cccc(C3CCNC3)c2)nc2ccccc21 (stereo not given),9.4
COc1ccc(C(=O)Nc2ccc(-c3nc(-c4ccccc4)co3)cc2)cc1OC,8.4
COc1ccccc1C1(NC(=O)Cn2c(C(F)(F)F)nc3ccccc32)CCCC1,-13.5
CC(=O)N1CCOC(CNC(=O)CCc2ccccc2O)C1 (stereo not given),5.1
CC(=O)Nc1ccc(-c2nc(Cn3cc(C)cn3)c(C)o2)cc1,64.3
COc1ccc(-c2nc(CN(c3ccccc3OC)S(=O)(=O)c3ccccc3)c(C)o2)cc1OC,-37.1
CC(C)n1c(CN2CCC3(CCC(=O)N(C)CC3)CC2)nc2ccccc21,-46.0
CCc1noc(-c2c(O)c3ccccc3n(CC)c2=O)n1,14.4
CN1CCC2(c3ccccc3)CCN(C(=O)C3CC3)CC12 (stereo not given),-33.2
COCC(=O)N1CCOCC2(CCN(Cc3nccn3C)C2)C1 (stereo not given),-2.9
COc1cccc(CNC(=O)C2CC3(CO2)CN(S(C)(=O)=O)c2ccccc23)c1 (stereo not given),-42.1
COCCCN1C(=O)CC(CC(=O)N2CCCCC2c2nccn2C)(c2ccccc2Cl)C1=O (stereo not given),-0.1
Cc1cccc(-c2nc(C)c(CCNC(=O)C(=O)Nc3ccc(F)cc3)s2)c1,-15.5
COc1cccc(-c2ccc(C3[C@@H]4CN(C(=O)C5CCCCC5)C[C@H]3N4)cc2)c1 (stereo not given in full),-49.2&-48.3
COc1cccc(Cl)c1-c1cccc(-n2cnnc2)c1,0.1
CC(=O)c1cc(C(=O)N2CC(CN3CCOCC3)c3ccccc32)cs1 (stereo not given),42.3
CCc1c(C)sc2c1CCN(Cc1nc(-c3ccccc3Cl)oc1C)C2c1ccccc1 (stereo not given),-68.4

SMILES,Tg IFNy HTS
O=S(=O)(CCN1CCN(CCS(=O)(=O)c2ccccc2)CC1)c1ccccc1,-37.7
CC(=O)Nc1ccc(S(=O)(=O)CCC(=O)OCC(=O)c2cccs2)cc1,-17.5
CCOCc1nnc(NC(=O)c2nc(-c3ccc(F)cc3)oc2C)s1,-49.1
OCC1(O)CCCN(Cc2cnc(-c3cccc4ccccc34)nc2)CC1 (stereo not given),23.2
COc1cccc(S(=O)(=O)Nc2ccc3c(c2)C(=O)N(C)[C@@H]2CC[C@H](CC(=O)NCC4CCCCC4)O[C@@H]2CO3)c1,-63.8
O=C(NCc1ccco1)c1ccc(C(=O)NCc2ccco2)cc1,8.9
COc1ccc(-n2c(=O)c(C(=O)Nc3ccc(F)cc3C)c(O)c3cccnc32)cc1,21.7
Cc1ccccc1C(=O)N1CCC2(CC1)Nc1ccc(Cl)cc1-n1cccc12,-63.0
CNC[C@H]1OCCCC[C@H](C)Oc2ccc(N)cc2C(=O)N([C@H](C)CO)C[C@@H]1C,252.6
CO[C@@H]1CC[C@@H]2CCOc3ccc(C#N)cc3C(=O)N(C)C[C@H](c3ccccc3)CC(=O)N(C)C[C@H]1O2,-7.2
Cn1cnc(S(=O)(=O)N2CC[C@@H]3[C@H]2c2cc(C4=CCCCC4)ccc2N[C@@H]3CO)c1,10.6
CN(CCCC(=O)n1cnc2ccccc21)S(=O)(=O)c1ccc(Cl)cc1,-35.3
O=C(C[C@H]1C=C[C@H](NC(=O)Nc2ccccc2F)[C@H](CO)O1)NCc1ccc(-c2ccccc2)cc1,1.1
CCOCCN1CC[C@@H]2C[C@@H](C(=O)N3CCCCO3)O[C@@H]2C1,-1.7
CCOc1ccc(-c2cnc(-c3cc(CC)no3)[nH]2)cc1,6.2
O=C(COc1ccc(F)cc1)N1CCc2c(nc(-c3cccnc3)[nH]c2=O)C1,2.4
CN(C/C=C/c1ccco1)Cc1cc(-c2cccnc2)no1,14.3
Cc1oc(C2CCN(S(=O)(=O)c3cccc(Cl)c3)CC2)nc1C(=O)N(C)C,7.3
CN1CCc2c(sc3nc(NC(=O)c4ccc(OC(F)(F)F)cc4)sc(=O)c23)C1,-39.1
CC(C)(C)SCCNC(=S)NCCO,-41.6
CCN(CCN(C)C)C(=O)c1cnc(-c2noc3cc(NCC4CC4)ccc23)s1,15.5
O=C(C[C@H]1CC[C@H]2[C@@H](COC[C@@H](O)CN2C(=O)c2ccc3c(c2)OCO3)O1)NC1CCC1,-46.4
COc1ccc(S(=O)(=O)NCCc2csc(-c3ccc(F)cc3)n2)cc1C,-5.6

# Assay outcomes as filed in PubChem BioAssay.
